Screening results deposited in PubChem by Johns Hopkins Ion Channel Center.
KCNQ2 enhance – potentiators of rat KCNQ2 potassium channel; CHO-K1 KCNQ2, FluxOR thallium flux fluorescence; stronger effect = higher value; 310,000 compounds, 0.54% hits; B-score at 10 µM;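 active = fluorescence ratio B-score at least 3 SD of library B-scores, with initial fluorescence B-score within 3 SD, cut at about 5.3 in these data; same plate scores as AID 2156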;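 note: B-score of peak minus minimum over baseline fluorescence ratio after K+ and Tl+ stimulus; positive B-score means potentiation of KCNQ2 with more thallium influx and brighter signal; only the inactives scoring about 0 or higher are listed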
Target sequence (O88943 whole entry, looked up): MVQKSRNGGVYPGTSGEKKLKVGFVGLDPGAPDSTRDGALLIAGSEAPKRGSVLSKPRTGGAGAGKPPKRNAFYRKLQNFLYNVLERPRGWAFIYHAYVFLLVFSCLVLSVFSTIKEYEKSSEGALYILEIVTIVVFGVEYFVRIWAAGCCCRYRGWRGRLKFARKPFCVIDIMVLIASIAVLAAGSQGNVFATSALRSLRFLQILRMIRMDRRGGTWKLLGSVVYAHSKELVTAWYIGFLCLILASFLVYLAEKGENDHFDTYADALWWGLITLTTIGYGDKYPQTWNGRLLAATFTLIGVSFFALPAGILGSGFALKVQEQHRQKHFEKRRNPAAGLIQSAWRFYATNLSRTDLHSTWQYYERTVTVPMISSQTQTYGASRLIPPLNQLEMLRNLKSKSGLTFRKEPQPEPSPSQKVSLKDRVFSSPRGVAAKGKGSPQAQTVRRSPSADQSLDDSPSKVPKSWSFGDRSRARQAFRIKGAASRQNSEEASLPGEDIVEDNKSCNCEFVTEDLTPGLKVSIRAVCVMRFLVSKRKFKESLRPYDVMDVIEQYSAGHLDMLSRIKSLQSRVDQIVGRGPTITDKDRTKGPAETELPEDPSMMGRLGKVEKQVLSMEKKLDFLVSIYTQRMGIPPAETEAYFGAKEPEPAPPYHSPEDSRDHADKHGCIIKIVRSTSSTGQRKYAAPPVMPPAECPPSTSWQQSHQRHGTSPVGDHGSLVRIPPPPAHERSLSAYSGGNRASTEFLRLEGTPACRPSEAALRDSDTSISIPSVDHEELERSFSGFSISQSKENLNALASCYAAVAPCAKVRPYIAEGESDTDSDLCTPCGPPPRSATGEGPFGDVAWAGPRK
KCNQ2 enhance baseline – further read-out of KCNQ2 enhance, marked with its call; B-score; compound at 10 µM; measured here: initial fluorescence intensity artifact check;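 brightness before thallium and not channel activity; 0 = typical well and far values either way flag optical interference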
Active calls of the source: *. This is a subset; count on the stated rates, not on these rows.

KCNQ2 enhance	KCNQ2 enhance baseline	Molecule
1.6	0.61	O=C(CSc1nc(O)c(Cc2ccccc2)c(=O)[nH]1)Nc1nc2c(s1)CCCC2
1.9	0.75	CCN1CCC(=NNC(=O)CC23CC4CC(CC(C4)C2)C3)CC1
0.06	-1.8	COc1cc(SC)ccc1C(=O)OCC(=O)NC1CCCCC1
1.2	0.84	CCN(CC(=O)NCc1cccs1)C(=O)c1ccc(S(=O)(=O)Nc2ccccc2)cc1
0.26	-2	O=C(CN1C2CCCC1CC(NC(=O)c1ccccc1)C2)Nc1nccs1 (stereo not given)
2.5	-1.7	Cc1ccc(NC(=O)c2cc(NC(=O)/C=C\C(=O)O)ccc2N2CCCCC2)cc1
1.5	0.06	CCOc1ccc(/C=N/NC(=S)NC2CC3C=CC2C3)cc1 (stereo not given)
0.85	0.94	CCOC(=O)c1c(NC2OC(=O)c3c2ccc(OC)c3OC)sc(C(=O)OC(C)(C)C)c1C (stereo not given)
0.19	-1.1	Cc1c2cccn2cc[n+]1C
1.6	0.29	CCC(CC)c1nnc(NC(=O)c2ccc(S(=O)(=O)N3CCc4ccccc4C3)cc2)s1
3.6	1	CCN(CC)c1ccc(NC(=O)c2cccc(OC)c2)c(C)c1
0.79	-1.4	COCCn1c(=N)c(C(=O)NCCc2ccc(OC)cc2)cc2c(=O)n3cccc(C)c3nc21
0.72	-0.87	CSc1cc(C)n(-c2ccc(Cl)cc2)c(=S)c1C(C)=O
0.43	-0.32	CCOC(=O)C1CCCN(C(=O)c2cc(=O)c3ccccc3o2)C1 (stereo not given)
1.1	-0.02	Cc1nn(CCCC(=O)Nc2cccnc2)c(C)c1[N+](=O)[O-]
1.3	0.68	CCCCN1C(=O)N(C)C2NC(=O)NC21 (stereo not given)

4 of the compounds above, with two lines to a compound.
Each structure is followed by: KCNQ2 enhance, KCNQ2 enhance baseline
> CSc1cc(C)n(-c2ccc(Cl)cc2)c(=S)c1C(C)=O
→ 0.72, -0.87
> CCOC(=O)C1CCCN(C(=O)c2cc(=O)c3ccccc3o2)C1 (stereo not given)
→ 0.43, -0.32
> Cc1nn(CCCC(=O)Nc2cccnc2)c(C)c1[N+](=O)[O-]
→ 1.1, -0.02
> CCCCN1C(=O)N(C)C2NC(=O)NC21 (stereo not given)
→ 1.3, 0.68

Additional structures
KCNQ2 enhance	KCNQ2 enhance baseline	Molecule
1.5	-0.18	CC(=O)CSc1nnc(CSc2ncccn2)n1C1CCCCC1
0.05	-3.5	O=C(NC1CCCC1)C(c1ccccc1)N(Cc1ccc2c(c1)OCO2)C(=O)Cc1cccs1 (stereo not given)
0.1	1.1	Cc1cccc(C)c1NC(=O)N1CC=CCC1
1.7	1.5	COc1ccc(-c2csc(C3=C(O)CN(Cc4ccc(S(N)(=O)=O)cc4)C3=N)n2)cc1OC
0.03	-1.3	NC(=O)c1ccc(NC(=O)C2COc3ccccc3O2)cc1 (stereo not given)
0.75	-0.09	CCOC(=O)N1CCN(C(=O)c2cn(CCOC)c(=O)c3c2c2ccccc2n3C)CC1
1.5	-1.5	COc1ccc(OCCC(=O)OCC(=O)Nc2cccc(S(=O)(=O)N3CCOCC3)c2)cc1
1.6	-1.1	Cc1[nH]n(-c2ccccc2)c(=O)c1/C=C1/C=c2ccccc2=N1
0.01	-1.3	Cc1cc(=O)oc2c3c(cc(OCC(=O)NCC(=O)N[C@H](C(=O)O)C(C)C)c12)OC(C)(C)CC3
0.64	-0.01	CNC(=O)Nc1ccc2nc(C)oc2c1
1.5	2.1	Cc1cccc(OCC(=O)Nc2nnc(S(=O)(=O)N3CCCCCC3)s2)c1
0.18	-0.53	CCOC(=O)N1CCN(C(=S)Nc2ccccc2C)CC1
0.2	0.35	Cc1ccc(N(C)S(=O)(=O)c2nnc(NC(=O)c3ccco3)s2)cc1
0.88	-0.12	COc1ccccc1N/C=C/c1onc(C)c1[N+](=O)[O-]
0.34	0.42	COc1ccc2[nH]c(=O)c(CN(Cc3ccc4c(c3)OCO4)C(C)=O)cc2c1
0.01	-0.96	CC1Cc2ccccc2N1C(=O)COc1nc2ccccc2nc1N1CCOCC1 (stereo not given)
0.03	-0.02	COc1ccc(N2CC(C(=O)Nc3cccc(OC(C)C)c3)CC2=O)cc1 (stereo not given)
0.17	0.2	CC(Oc1ccc(Cl)cc1Cl)C(=O)Nc1ccc2oc(-c3ccncc3)nc2c1 (stereo not given)
0.3	-0.76	N#C/C(=C1\CCCN1)c1nc2ccccc2c(=O)[nH]1
0.19	0.06	CC1CC(C)CN(S(=O)(=O)CCNC(=O)c2ccccc2)C1 (stereo not given)
0.78	3.6	N#C/C(=C/c1ccc(CNS(=O)(=O)c2ccccc2)o1)C(=O)NCc1ccccc1
0.84	0.14	Cc1[nH]c2ccccc2c1C(=O)C(=O)Nc1ccc2c(c1)OCO2
1.2	-0.46	COc1ccc2c(CC(=O)OCC(=O)Nc3cccc(S(N)(=O)=O)c3)coc2c1
1.8	0.37	CC(C)C(C)NC(=O)COC(=O)c1cccc(C(=O)OCC(=O)NC(C)C(C)C)n1 (stereo not given)

Given as a markdown table: part of the list above.
| Structure | KCNQ2 enhance | KCNQ2 enhance baseline |
| --- | --- | --- |
| Cc1nn(CCCC(=O)Nc2cccnc2)c(C)c1[N+](=O)[O-] | 1.1 | -0.02 |
| CCCCN1C(=O)N(C)C2NC(=O)NC21 (stereo not given) | 1.3 | 0.68 |
| CC(=O)CSc1nnc(CSc2ncccn2)n1C1CCCCC1 | 1.5 | -0.18 |
| O=C(NC1CCCC1)C(c1ccccc1)N(Cc1ccc2c(c1)OCO2)C(=O)Cc1cccs1 (stereo not given) | 0.05 | -3.5 |
| Cc1cccc(C)c1NC(=O)N1CC=CCC1 | 0.1 | 1.1 |
| COc1ccc(-c2csc(C3=C(O)CN(Cc4ccc(S(N)(=O)=O)cc4)C3=N)n2)cc1OC | 1.7 | 1.5 |

(next part)
KCNQ2 enhance	KCNQ2 enhance baseline	Molecule
1.2	0.66	O=C1Nc2ccccc2O/C1=C\c1ccccc1
0.64	-0.99	Cc1cc(N2CCN(C)CC2)nc2ccc(NC(=O)CCC(=O)NCCCOC(C)C)cc12
0.03	1.1	CN1CCN(S(=O)(=O)c2ccc(-c3noc(C4CCN(S(C)(=O)=O)CC4)n3)cc2)CC1
0.01	-1.1	Cc1ccsc1C(=O)N1CCCC(CO)(Cc2ccccc2)C1 (stereo not given)
0.1	-0.02	COc1ccc(NC(=O)CCS(=O)(=O)c2cccc3nonc23)cc1Cl
0.17	1.2	CC(C)NC(=O)CSc1nc(-c2cccs2)cc(-c2ccccc2)c1C#N
0.23	-0.38	CC(=O)NCCN=C(C)c1sc2ccccc2c1O
0.37	-1.6	COc1cccc(N2CC(C(=O)Nc3nnc(SCC(=O)Nc4ccc(NC(C)=O)cc4)s3)CC2=O)c1 (stereo not given)
0.04	-2.4	CCOC(=O)C1CCN(Cc2ccc(C(=O)OC)cc2)CC1
0.27	1.7	CC1=NN(c2ccccc2)C(=O)C1/C=C1/NC(=S)NC1=O (stereo not given)
0.77	-0.2	COc1ccc(-c2c(C)n([O-])c(C)c(C)[n+]2=O)cc1OC
2.1	0.98	CCOC(=O)c1cccc(NC(=O)C2CCCN(c3nnc(N4CCCC4=O)s3)C2)c1 (stereo not given)
1.1	-0.45	O=C(Nc1nnc(C(F)(F)F)s1)c1cccnc1
1.3	-1.4	COc1ccccc1C(c1c(N)n(C)c(=O)n(C)c1=O)C(C)[N+](=O)[O-] (stereo not given)
0.46	-0.79	CC(=O)c1cccc(NC(=O)C2=CC(c3ccc4c(c3)OCO4)=NS(=O)(=O)N2C)c1
14*	-1*	O=C(N/N=C/c1ccccn1)c1sc2ccccc2c1Cl
0.62	-0.01	COc1cccc(CNS(=O)(=O)/C=C/c2ccc(OC)c(OC)c2)c1
0.09	1.4	COc1ccc(NC(=O)Cn2nnc(C(=O)NCc3ccco3)c2N)c(OC)c1
0.03	-0.57	COC(=O)c1ccc(COc2ccccc2/C=C/C(=O)c2ccc(OCC(=O)O)cc2)cc1
0.14	-0.22	CCCc1nc2ccc(NC(=O)NCCC(=O)OCC)cc2c(=O)n1Cc1ccc(Cl)cc1
2	-0.56	CCOC(=O)C1CCN(c2nc3ccccc3nc2C(C#N)C(=O)OCCOC)CC1 (stereo not given)
1.7	-0.41	Nc1c(S(=O)(=O)c2ccccc2)csc1C(=O)O
0.43	-1	COc1ccc(CCN2C(=O)CSC2c2cccc([N+](=O)[O-])c2)cc1OC (stereo not given)
0.09	1.8	O=C(O)CCN(CCC(=O)O)c1ccccc1
0.07	0.55	COc1ccccc1CNC(=O)[C@@H]1CCCN1S(=O)(=O)c1ccc(Cl)cc1
0.01	-0.01	CCn1c(O)c(C=Nc2ccccc2)sc1=S
0.36	0.33	CS(=O)(=O)N1CCN(C(=O)Cc2ccc(Br)cc2)CC1
0.28	0.47	C=CCn1c(-c2ccc(Cl)cc2)c[nH]c1=S
0.25	-0.87	Nc1nc(NCc2ccco2)nn1-c1ccccc1
0.1	0.4	CN(C(=O)COC(=O)/C=C/c1ccc(Cl)c(Cl)c1)c1c(N)n(Cc2ccccc2)c(=O)[nH]c1=O
0.03	-2	COc1ccc2ccccc2c1CN1CCSCC1
1.9	-0.61	CCOC(=O)N1CCN(C(=O)c2nn(C)c3c2CSc2ccccc2-3)CC1
0.86	-2.3	O=C(CSc1nnc(Cc2cccs2)n1-c1ccccc1)Nc1ccc2c(c1)OCCO2
0.4	2.1	CN(Cc1cc2ccccc2[nH]c1=O)C(=O)COc1ccccc1
0.01	-2.2	CC(C(=O)Nc1cc(Cl)cc(Cl)c1)N1CCCC1 (stereo not given)
0.05	0.89	COc1ccc(-c2cnnc(N/N=C/c3ccc(OC)c(OC)c3)n2)cc1
0.27	0.02	Oc1ccccc1C1OCC2(CO1)COC(c1ccccc1O)OC2 (stereo not given)
0.32	1.2	CN(C(=O)c1cccc(NC(=O)c2ccccc2)c1)C1CCCCC1
1.4	-0.71	COc1ccc(CNC(=O)c2ccc(NC(=O)C3=CSCCO3)cc2)cc1
0.53	-1.1	O=C(NCC(c1ccco1)N1CCc2ccccc2C1)c1c(F)cccc1F (stereo not given)
0.41	0.57	Cc1ccc(NC(=S)NN2CCN(C)CC2)cc1
1.7	-1.5	O=C(Oc1ccc(C(=S)N2CCOCC2)cc1)c1ccc(Br)cc1
0.12	-2.1	COc1cccc(N(CC(=O)NC2CCCCC2)C(=O)Cn2nnc(-c3ccc(C)o3)n2)c1
0.09	-0.65	O=C(NCCS(=O)(=O)N1CCN(c2ccccc2F)CC1)c1ccc(Br)o1
0.46	-0.64	Cc1cc(C)n2nc(-c3cnn(C)c3C(F)(F)F)cc2n1
1	0.09	COc1ccc(C(C2C(=O)CC(C)(C)CC2=O)C2C(=O)CC(C)(C)CC2=O)cc1COCC(F)(F)F
2.4	-0.07	Cn1c(CC(=O)c2ccc(Br)cc2)[n+](C)c2ccccc21
0.62	0.08	CCN(Cc1ccccc1)C(=O)Cc1c[nH]c2ccccc12
0.07	1.6	CCCNC(=O)OCCC12CC3CC(CC(C3)C1)C2
0.28	-2.1	Cn1c(N/N=C2\CCCc3ccccc32)nc2c1c(=O)n(Cc1ccccc1)c(=O)n2C
0.07	-0.91	CCOC(=O)CCCNC(=O)COC(=O)c1cccc(F)c1
1.6	-0.54	O=C(O)c1ccc(NCc2ccncc2)cc1
0.64	-0.83	Cc1cccc(NC2=NCC(=O)N2Cc2cccs2)c1
2.5	-0.37	CCOC(=O)C1CCN(C(=O)Nc2ccc(NC(=O)C3CCN(C(=O)OCC)CC3)cc2)CC1
0.66	-1.9	O=C(Nc1ccn(C2CC(OC(=O)c3ccccc3)C(CO)O2)c(=O)n1)c1ccccc1 (stereo not given)
0.01	0.95	CC(C)(C)c1nc(SCC(=O)Nc2nc3c(s2)CCCC3)c2ccccc2n1

Next part
KCNQ2 enhance	KCNQ2 enhance baseline	Molecule
1.6	-0.09	O=[N+]([O-])c1ccc(/C=N/n2c(C3CCCCC3)n[nH]c2=S)cc1
0.2	-0.57	N#CC1=C(N)N(c2ccccc2C#N)C2=C(C(=O)CCC2)C1c1ccsc1 (stereo not given)
0.4	1.1	COc1ccc(C(=O)N/C(=C\c2cc(OC)c(OC)cc2[N+](=O)[O-])C(=O)NCC(=O)O)cc1
0.16	-0.43	COC(=O)c1[nH]cnc1C(=O)c1ccccc1
0.99	1.2	CN(CCO)C1=CC(=O)CC(C)(C)C1
0.56	-0.7	CC1=CC(=O)N(c2ccn(C)n2)C1=O
0.84	0.58	Cc1ccn2c(=O)nc(SCC(=O)Nc3ccc4c(c3)OCCO4)nc2c1
1.2	-0.66	CCOC(=O)C1=C(COC(=O)C(CC)Oc2ccccc2)NC(=O)NC1C (stereo not given)
1.9	-0.34	COc1ccccc1C(=O)NCCC(=O)Nc1ccc(C)cn1
0.4	-0.02	COc1ccc(NC(=O)C2C3C=CC4(O3)C2C(=O)N(CCCN2CCCC(C)C2)C4C(=O)NC2CCCCC2)cc1 (stereo not given)
1.2	-1.3	COc1cc(NC(=O)Cn2ncc3c2-c2ccccc2OC3)cc(OC)c1OC
1.2	1.4	Cc1ccc(NC(=O)C2CCN(S(=O)(=O)c3ccc4c(c3)NC(=O)C(C)S4)CC2)c(Cl)c1 (stereo not given)
0.59	-2.5	Cc1ccc(C)c(S(=O)(=O)N2CCN(C(=O)CSC(=S)N3CCCC3)CC2)c1
0.54	-1.9	CCn1cc(CN2CCN(Cc3cccc(OC)c3)C(CCO)C2)c(C)n1 (stereo not given)
0.01	0.83	O=C(Cn1cnc2c(nnn2-c2ccc(F)cc2)c1=O)N1CCCC1
0.16	-1.1	COc1ccc(NC(=O)C2=CCN(S(=O)(=O)c3ccccc3)CC2)cc1OC
1.5	1.8	CCC(C)c1ccc(O)c(/C=N/O)c1 (stereo not given)
0.11	0.59	CCOC(=O)N1CCN(C2=NC3(CCCCC3)C(C#N)C(=O)N2)CC1 (stereo not given)
